Arbovirus inh: antivirals against arbovirus infection, primary screen, cell-based, full library, 10K replicate subset; arbovirus infection cell-based antiviral screen; inhibition, % at 10 µM; hit rate 0.37% among 200,000; AID 1251, 2008;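 active means inhibition from about 30%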;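 further: bluetongue infection of BSR cells; cell survival read as ATP light after 72 h; 0% = infected wells without compound and 100% = uninfected wells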
Mtb growth: M. tuberculosis H37Rv growth inhibitors, H37Rv strain (AID 1626) | M. tuberculosis H37Rv growth inhibition; higher % means a stronger effect | inhibition, % at 10 µM, or IC50 in µM where a hit was titrated | hit rate 0.95% among 220,000;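 active means confirmed in a dose series; inconclusive means inhibition above 80% but not taken into the dose series; inactive means below 80% or under 30% at every dose of the series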;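 further: bacteria incubated seven days before Alamar blue readout; 0% = bacteria only wells and 100% = bacteria with antibiotic wells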
Mtb bLac sens: beta-lactam sensitization of Mtb H37Rv, H37Rv; M. tuberculosis H37Rv growth with meropenem, percent inhibition; hits of this screen are not shown here; inhibition, % at 25 µM; hit rate 0.27% among 330,000; AID 434955, 2010;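 active means about 74% or more and at least 40 points above the plate without the antibiotic, then above 30% in a dose series; inconclusive means first-round hits that could not be retested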;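 further: growth measured after seven days incubation then overnight dye step; 0% = bacteria only wells and 100% = bacteria with antibiotic; twin plates without the antibiotic show which effects depend on it; some results filed as inactive read as strong as hits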
RecA intein inh: Mtb RecA intein splicing inhibitors, primary screen, biochemical, fluorescence, HTS; Protein RecA (Mycobacterium tuberculosis (strain ATCC 25618 / H37Rv)), P9WHJ3; cell-free RecA intein splicing; inhibition, %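 (about 9 µM by stock and volumes)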; hit rate 0.75% among 290,000; AID 2221, 2009; in the data active means inhibition above about 30%; inconclusive means no clear call, values can overlap the other calls;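 further: 0% = vehicle wells and 100% = reference inhibitor control wells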
Target sequence (P9WHJ3 whole entry, looked up): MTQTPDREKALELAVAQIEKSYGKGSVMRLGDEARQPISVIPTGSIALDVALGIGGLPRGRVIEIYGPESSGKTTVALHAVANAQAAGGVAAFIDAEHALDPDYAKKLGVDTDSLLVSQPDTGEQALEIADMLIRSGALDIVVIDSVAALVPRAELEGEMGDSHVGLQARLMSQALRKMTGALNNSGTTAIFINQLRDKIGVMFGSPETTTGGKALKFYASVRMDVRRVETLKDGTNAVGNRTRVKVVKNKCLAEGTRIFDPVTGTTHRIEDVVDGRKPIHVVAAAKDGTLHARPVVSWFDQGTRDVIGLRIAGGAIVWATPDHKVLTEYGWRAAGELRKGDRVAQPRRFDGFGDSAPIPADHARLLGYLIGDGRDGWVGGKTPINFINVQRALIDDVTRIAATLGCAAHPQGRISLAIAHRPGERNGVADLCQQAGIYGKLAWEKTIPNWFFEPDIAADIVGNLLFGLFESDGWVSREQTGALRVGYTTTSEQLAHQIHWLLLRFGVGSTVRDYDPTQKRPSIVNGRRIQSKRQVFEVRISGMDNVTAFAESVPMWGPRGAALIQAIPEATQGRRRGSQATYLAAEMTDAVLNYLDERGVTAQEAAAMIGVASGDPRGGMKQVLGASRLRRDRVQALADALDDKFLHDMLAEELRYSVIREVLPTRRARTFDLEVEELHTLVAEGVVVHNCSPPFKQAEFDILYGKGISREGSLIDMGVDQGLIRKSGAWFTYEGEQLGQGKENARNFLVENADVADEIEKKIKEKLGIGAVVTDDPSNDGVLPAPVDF
YopH inh: YopH tyrosine phosphatase inhibitors, primary screen, biochemical, fluorescence Ex485/Em525. YopH tyrosine phosphatase [Yersinia enterocolitica]. inhibition, %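 (about 10 µM by stock and volumes)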. hit rate 0.16% among 140,000;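 active means inhibition of 50% or more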;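 further: controls were vehicle for no effect and minimum signal wells for full effect; inactives centre near -20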
Arbovirus inh repeat: further read-out of Arbovirus inh, marked with its call; inhibition, %; measured here: 10K subset replicate screen; many hits read low in the repeat;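 first of two repeat runs on a subset; 0% = infected and 100% = uninfected wells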
* marks the source's active call; other numbers are inactive results; ? = inconclusive; · = no result given. Not all compounds are listed, so the mix of outcomes need not match the whole.

SMILES	Arbovirus inh	Mtb growth	Mtb bLac sens	RecA intein inh	YopH inh	others
CCN(CC)S(=O)(=O)c1ccc(N2CCOCC2)c(NC(=O)Cc2ccccc2F)c1	-1	7%	2	-0.7	-28
O=C(Nc1ccc(CN2CCOCC2)cc1)c1ccc(N2CCCC2)c([N+](=O)[O-])c1	3	7%	-5	-0.9	·
O=c1c2c3c(sc2nc2n1CCC2)CCCC3	·	-6%	-7	0.1	·
CCOC(=O)N1CCN(C(=O)c2ccc(Cl)c(S(=O)(=O)N3CCCC3)c2)CC1	·	·	3	-6.0	·
CCOc1ccc(OCC)c(NC(=O)CN(C)S(=O)(=O)c2cnc[nH]2)c1	-1	-5%	-7	0.3	-7
Cc1cc(NC(=O)CSCC(=O)Nc2cc(C(F)(F)F)ccc2N2CCCC2)no1	·	·	-1	-0.7	·
Cc1ccc(OCC(=O)N/N=C/c2cccn2C)cc1	-5	4%	-11	-0.5	5
O=C(N/N=C/c1ccc([N+](=O)[O-])o1)c1ccncc1	·	?	100	10	·
O=C(COC(=O)c1ccccc1)Nc1ccc(Cl)cn1	5	-2%	1	3.2	·
CCc1nnc(NC(=O)C2CC(=O)N(c3ccc4c(c3)OCCO4)C2)s1 (configuration not stated)	3	-4%	-1	1.1	-36
CC(NC(=O)c1ccccc1F)C(=O)O (configuration not stated)	6	3%	12	1.5	16
Cc1ccc(NC(=O)c2ccc(NCC3CCCO3)c([N+](=O)[O-])c2)cc1Cl (configuration not stated)	-3	-2%	-4	1.5	5
Cc1cc(=O)oc2c3c(cc(OCC(=O)Nc4ccc(CCO)cc4)c12)OC(C)(C)CC3	·	·	6	2.9	·
CC(CC(=O)NC(C)c1ccc2c(c1)OCCO2)c1ccccc1 (configuration not stated)	-4	3%	1	-0.4	-23
O=[N+]([O-])/C=C/c1cn(Cc2ccc(Cl)cc2)c2ccccc12	-37	5%	4	-0.3	-19

As a working copy, 4 of the compounds above.
SMILES	Arbovirus inh	Mtb growth	Mtb bLac sens	RecA intein inh	YopH inh	others
Cc1ccc(NC(=O)c2ccc(NCC3CCCO3)c([N+](=O)[O-])c2)cc1Cl (configuration not stated)	-3	-2%	-4	1.5	5
Cc1cc(=O)oc2c3c(cc(OCC(=O)Nc4ccc(CCO)cc4)c12)OC(C)(C)CC3	·	·	6	2.9	·
CC(CC(=O)NC(C)c1ccc2c(c1)OCCO2)c1ccccc1 (configuration not stated)	-4	3%	1	-0.4	-23
O=[N+]([O-])/C=C/c1cn(Cc2ccc(Cl)cc2)c2ccccc12	-37	5%	4	-0.3	-19

Next results
SMILES	Arbovirus inh	Mtb growth	Mtb bLac sens	RecA intein inh	YopH inh	others
Cn1c(=O)c(-[n+]2ccccc2)c([O-])c2ccccc21	3	-8%	-2	-8.7	5
COCCn1c(SCC(=O)N(C(C)C)C(C)C)nnc1-c1cc2ccccc2cc1O	9	3%	8	-4.9	-13
CCC1CSC(Nc2ccc(C(=O)/C=C/c3ccc(Br)cc3)cc2)=N1 (configuration not stated)	-13	18%	99	·	-3
O=C1CCC2(C(=O)O)Sc3ccccc3N12 (configuration not stated)	-4	-5%	-2	-2.1	-2
O=C1CCCCN1CCC(=O)N1CCCC(Nc2ccccc2)C1 (configuration not stated)	·	·	-8	-2.9	·
O=S(=O)(c1ccccc1)n1c(C(O)c2ccccn2)cc2ccccc21 (configuration not stated)	-4	0%	-1	2.6	-25
CC1(C)c2[nH]c3ccccc3c2C[C@@H]2C(=O)N(Cc3ccccc3Cl)C(=O)N21	·	9%	-9	-3.3	·
Cc1ccc(S(=O)(=O)N(CC(O)CN2C(=O)NC(C)(C)C2=O)c2ccccc2)cc1 (configuration not stated)	-1	3%	-7	0.5	-17
Cc1onc(C(=O)Nc2ccc3c(c2)OCO3)c1[N+](=O)[O-]	·	·	1	-7.3	·
Fc1ccccc1NC(=S)N1CCN(C/C=C/c2ccccc2)CC1	11	3%	-3	-2.3	-19
CCn1c(O)c(C=NCCN2CCOCC2)sc1=S	3	2%	-19	3.2	-11
CCn1c(-c2nn(-c3ccc(C)cc3)ccc2=O)n[nH]c1=S	2	4%	-3	0.3	·
COc1ccc(NC(=O)CSc2nc(=O)n(CCN3CCOCC3)c3c2CCC3)cc1	·	·	2	3.0	·
COc1ccc(NC(=O)Cn2c(=O)cnc3ccccc32)cc1S(=O)(=O)N1CCCCC1	·	·	-14	-0.7	·
O=CN/N=C/c1c(O)ccc2ccccc12	·	-7%	?	-5.9	·
COc1cccc(NC(=O)Nc2nccc(C)n2)c1	0	0%	7	2.4	·
O=C(N/N=C/c1cccnc1)c1ccc([N+](=O)[O-])cc1	3	3%	28	-5.4	-38
COc1ccc(/C=N/NS(C)(=O)=O)c(OC)c1	-12	3%	1	-2.0	-8
COc1ccccc1N1CCN(C(=O)c2cccc(N3C(=O)C4C5C=CC(C5)C4C3=O)c2)CC1 (configuration not stated)	·	·	3	1.1	·
Cc1ccc(C)c(NC(=O)CN(C)C(=O)CSCc2c(C)noc2C)c1	·	·	-14	2.2	·
Cc1cccc(C(CC(=O)NCCc2ccccc2)c2ccccc2)c1O (configuration not stated)	-1	3%	9	4.7	·
COc1cccc(C(=O)OCn2nnc3ccccc3c2=O)c1OC	-9	11%	99	-1.6	·	Arbovirus inh repeat=2
O=C(Nc1ccc(OC(F)F)c(Cl)c1)[C@@H]1CCCN1C(=O)c1cccs1	9	7%	-7	1.8	-2
COc1ccc(NC(=O)NC2CCN(C(C)C)CC2)c(OC)c1	-3	1%	-1	-0.5	1
CCOC(=O)c1[nH]c(=O)[nH]c1CNc1ccccc1C#N	·	·	-2	-1.6	·
COc1ccc(NC(=O)COC(=O)COc2ccc(Br)cc2)cc1	14	-3%	-3	-0.1	·
Fc1cccc(CSc2ccc(-c3ccco3)nn2)c1	-25	-7%	-1	2.9	-20
CCNc1ccc([N+](=O)[O-])cc1	·	2%	4	2.9	·
Cc1ccccc1N(CC(=O)NCc1ccco1)C(=O)CCC(=O)Nc1nccs1	0	-2%	-4	2.1	·
O=C(CCC(=O)c1ccccc1)Nc1ccc(C(=O)O)cc1	·	·	-1	1.0	·
COC(=O)[C@H](Cc1ccccc1)NC(=O)NCCc1ccccc1F	·	·	-9	0.9	·
OCCNc1nc(N2CCN(c3ccccc3)CC2)nc2ccccc12	·	·	0	-1.3	·
CC1CCCC(C)N1CCCNC(=O)c1ccc2nc(N3CCCCC3)sc2c1 (configuration not stated)	·	·	-4	5.0	·
COc1ccc(N(C)S(=O)(=O)c2c(C)noc2C)c(OC)c1	0	1%	-1	-1.4	·
CC(C)CNC(=O)c1cc(-c2ccc(Br)cc2)on1	4	7%	-1	-0.1	-50
CC(C)(C)n1nnnc1CN(Cc1cccnc1)Cc1ccccc1Cl	8	0%	-3	2.2	-18
CCc1c(C)nc2nc(NC(C)=O)[nH]n2c1=O	-4	2%	-2	-0.6	-25
Cn1cc(S(=O)(=O)c2ccccc2)c(=O)c2cc(Cl)ccc21	·	·	3	-52	·
O=C(NCc1ccc(S(=O)(=O)NC2CCCCC2)s1)c1ccccc1	·	11%	-6	·	·
O=C(c1ccco1)N1N=C(c2ccccc2)CC1c1ccc2nccnc2c1 (configuration not stated)	·	8%	6	0.6	·
Cc1cccc(CN2C(=O)N/C(=C/c3ccc(C)s3)C2=O)c1	-21	-12%	2	0.0	-9
Cc1cc(NC(=O)CCC(=O)N(CCC(C)C)C(C(=O)NCC2CCCO2)c2ccccc2C)no1 (configuration not stated)	·	·	3	0.8	·
CC1(C)CC(=O)C2=C(C1)N(c1cccnc1)C(N)=C(C#N)C2c1cccs1 (configuration not stated)	6	3%	-6	-1.8	-12
COc1ccccc1C(=O)NC(=O)COC(=O)c1ccco1	·	·	-9	0.5	·
COc1ccc(S(=O)(=O)NC(C)C(=O)NCCN2CCOCC2)cc1Cl (configuration not stated)	·	·	-2	2.5	·

The list goes on (6 carried over from the part before).
SMILES	Arbovirus inh	Mtb growth	Mtb bLac sens	RecA intein inh	YopH inh	others
O=C(c1ccco1)N1N=C(c2ccccc2)CC1c1ccc2nccnc2c1 (configuration not stated)	·	8%	6	0.6	·
Cc1cccc(CN2C(=O)N/C(=C/c3ccc(C)s3)C2=O)c1	-21	-12%	2	0.0	-9
Cc1cc(NC(=O)CCC(=O)N(CCC(C)C)C(C(=O)NCC2CCCO2)c2ccccc2C)no1 (configuration not stated)	·	·	3	0.8	·
CC1(C)CC(=O)C2=C(C1)N(c1cccnc1)C(N)=C(C#N)C2c1cccs1 (configuration not stated)	6	3%	-6	-1.8	-12
COc1ccccc1C(=O)NC(=O)COC(=O)c1ccco1	·	·	-9	0.5	·
COc1ccc(S(=O)(=O)NC(C)C(=O)NCCN2CCOCC2)cc1Cl (configuration not stated)	·	·	-2	2.5	·
O=C(NCc1ccc(OC(F)(F)F)cc1)C12CN(Cc3ccccc3)CC1C(c1cccc([N+](=O)[O-])c1)=NO2 (configuration not stated)	18	1%	1	0.5	-21
COc1ccc(CCNC(=O)C2CCN(C(=O)NC3CCCCC3)CC2)cc1	0	-3%	-2	-0.1	-20
CC(=O)c1ccc(Nc2c([N+](=O)[O-])ccc3nonc23)cc1	·	·	-2	-0.7	·
Cc1nc2c(-c3ccc(F)cc3)cnn2c(N)c1-c1ccc(F)cc1	·	·	0	-0.4	·
CCOc1ccccc1NS(=O)(=O)c1c(C)noc1C	1	15%	4	0.9	2
CCCCn1c(=S)[nH]c2ncccc2c1=O	-3	·	11	-2.1	-28
O=C(c1cccc([N+](=O)[O-])c1)N1CCN(Cc2ccccc2)CC1	·	·	-5	3.4	·
Cc1cc(C)c(S(=O)(=O)c2ccccc2)c(N(C)C)n1	0	7%	-6	-4.4	-23
COc1cc2c3nnc(-c4ccc(F)cc4)c-3cn(Cc3ccc(F)cc3)c2cc1OC	-40	11%	83	-22	-4
COc1ccc(NC(=O)CSCc2cc(=O)n3c(C)csc3n2)cc1	·	·	-7	1.6	·
O=c1cc[nH]c2cccc(Cc3ccccc3)c12	6	-2%	1	-0.7	-36
CC(=O)Nc1nc(COc2ccccc2)cs1	-1	-2%	2	-1.6	-19
COC(=O)c1c(NC(=O)CC2Nc3cc(C)c(C)cc3NC2=O)sc(C)c1C (configuration not stated)	6	3%	5	-7.3	-4
Cc1cccn2c(CNCC3OCCc4ccccc43)c(C(=O)N3CCCCC3)nc12 (configuration not stated)	-1	4%	-8	1.1	·
O=C(Cc1c(O)c2ccccc2[nH]c1=O)OC1CCCCC1	7	-1%	-4	-1.9	-20
COc1ccc2nc(SC)cc(C)c2c1	·	17%	0	-1.5	·
COC(=O)c1ccccc1NC(=O)CSc1nc(C)cc(C)n1	-1	-1%	3	-3.3	·
CCc1cc(OCCCCNCc2ccccc2)ccc1Cl	-37	72%	94	7.0	-18
Cc1ccccc1S(=O)(=O)Cc1ccc(C(=O)N2CCN(c3ccccc3F)CC2)o1	·	·	-4	2.3	·
CCCCC(=O)OCC(=O)c1[nH]c(C)c(C(=O)OCC)c1C	-3	5%	-7	-1.9	10
O=C(NCCO)/C(=C/c1ccc2c(c1)OCO2)NC(=O)c1ccc(Br)cc1	-7	-1%	-2	-3.2	·
O=c1c(S(=O)(=O)c2ccc(Cl)cc2)cn(Cc2cccc(F)c2)c2ccc(F)cc12	2	11%	-7	1.7	-30
Cc1ccc(C(=O)Nc2c(C(=O)NCc3ccco3)cnn2-c2ccccc2)cc1	-1	6%	5	0.1	-35
Cc1ccc2c(c1)NC(=O)C(CC(=O)NCCCN1CCN(c3cc(Cl)ccc3C)CC1)O2 (configuration not stated)	-40	4%	1	-1.4	-8
Cc1ccc(Oc2ccc(NC(=O)CCC(=O)OCC(=O)c3cccs3)cc2)cc1C	5	-2%	-3	-22	-17
CC1(C)NC(=O)N(c2ccccc2Cl)C1(C)NO (configuration not stated)	1	-4%	2	-2.7	-35
COc1cc(/C=C2\C(=N)N3N=CSC3=NC2=O)ccc1OS(=O)(=O)c1ccccc1	·	·	-1	-0.7	·
CN(CC(=O)N1CCN(c2cccc(Cl)c2)CC1)S(=O)(=O)c1cnc[nH]1	1	-3%	5	0.8	-21
COc1ccccc1NC(=O)C1C2CCCCC21 (configuration not stated)	-4	·	1	-3.6	0
CNC(=O)C1CC(=O)N(c2ccc(C)cc2)C1 (configuration not stated)	1	-4%	-5	-2.2	-34	Arbovirus inh repeat=-1
COc1cc(C=O)ccc1OCCSc1ccc(C)cc1	1	-5%	93	2.7	-36
Cc1ccc(OCCC(=O)OCC(=O)NCCc2ccccc2)cc1	2	0%	1	0.8	·
O=C(COC(=O)c1cc(Cl)ccc1O)NCCNC(=O)COC(=O)c1cc(Cl)ccc1O	·	·	2	0.0	·
